Screening data from PubChem.
LANA-H2A inh: blocks KSHV LANA binding to histone H2A/H2B. Q9QR71. cell-free LANA-H2A/H2B peptide, fluorescence polarization. inhibition, % (concentration not given with the values). 320,000 compounds, 0.6% hits; in the data active = inhibition mostly above about 10%, no sharp cut-off; inactive = mostly below about 6.7%;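 note: stock transfer was 7.5 nL into about 10 µL; 0% = median of vehicle wells and 100% = median of positive control wells; one replicate is shown; the record names a cut of 25% in any replicate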
Calb FLC: C. albicans growth modulation with fluconazole; C. albicans CaCi-2 (fluconazole-resistant clinical isolate) + fluconazole, Alamar Blue growth, 48 h; AID 1979; growth inhibition, % (test concentration not listed); 300,000 compounds, 0.57% hits;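 active = most replicates above 75%; inconclusive = exactly half above 75%; inactive = most below 75%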;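 note: all wells also contain fluconazole at 8 µg/ml as a sub-toxic cotreatment; 0% = median of DMSO wells and 100% = median of geldanamycin control wells; wells of about 8 µL received 7.5 nL stock; the first replicate is given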
rRNA inh HTS: inhibits bacterial ribosomal RNA function over humanized ribosomes. AID 720706. 350,000 compounds, 1.6% hits. GFP signal change (wild-type ribosome), % (concentration not given with the values). E. coli WT GFP vs humanized-ribosome RFP mutants, fluorescence, 24 h; active compounds read low; DMSO median 0, no signal -100;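 active = significant combined selectivity score with lowered wild-type GFP, culture density cut under 30%, mutant RFP and density less affected; inactive = any of these conditions unmet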; note: one replicate is shown; some compounds called inactive have numbers as strong as hits
ALR inh: human ALR oxidase inhibition via reduced H2O2. P55789. purified ALR, DTT oxidation, H2O2 HRP-luminol luminescence. inhibition, % (concentration not given with the values). 290,000 compounds, 3.8% hits. AID 485317;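 active = mean and each replicate at 75% or more; inconclusive = only one of the two met; inactive = neither met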;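 note: stock transfer was 7.5 nL into about 7.5 µL; 0% = neutral wells and 100% = wells with inactivated enzyme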
Target sequence (P55789 whole entry, looked up): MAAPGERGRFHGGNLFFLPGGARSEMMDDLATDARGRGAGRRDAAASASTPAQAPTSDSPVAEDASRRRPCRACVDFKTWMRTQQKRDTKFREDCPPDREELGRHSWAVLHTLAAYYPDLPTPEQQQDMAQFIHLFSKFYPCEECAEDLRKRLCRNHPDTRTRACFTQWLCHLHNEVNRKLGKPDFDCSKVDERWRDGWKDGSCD
Beta cell apopt: beta cell apoptosis inhibition; 300,000 compounds, 0.8% hits; protection from apoptosis, % (test concentration not listed); AID 435005; INS-1E cytokine-induced death, ATP luminescence, 48 h; percent of positive-control rescue, neutral wells zero;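 active = all replicates at 75% or more, or half of them and the mean; inconclusive = half reach 75% but not the mean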;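 note: 0% = cytokine-treated negative control wells and 100% = positive control rescue; higher means more ATP so stronger rescue from cytokine killing; wells of about 40 µL received 100 nL stock; the first replicate is given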
Bfl-1 A1 inh: inhibitors of the anti-apoptotic protein A1, read as caspase activation | caspase activation, % (test concentration not listed) | MEF A1-2A-BIM cells, Caspase-Glo 3/7 luminescence, 3 h; percent of clofoctol response, vehicle zero | 330,000 compounds, 0.066% hits | AID 2462;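 active = over half of replicate activation scores above 10%, or exactly half above 10 with the replicate mean above 10; inconclusive = replicate mean below 10 yet half the replicates above 10; inactive = over half of replicates below 10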;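 note: wells of about 30 µL received 50 nL stock; many hits fall short of the cut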
Beta2AR agonist: agonists of human beta-2 adrenergic receptor inducing internalization | P07550 | 340,000 compounds, 0.43% hits | response, % (no concentration beside the values) | Am2.2-beta2AR cells, FAP receptor internalization, flow cytometry; reference of the scale not given here;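 active = response above a set limit, near 3 SD of response in nonfluorescent compounds, cut at about 42% in these data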;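 note: stock transfer was 100 nL into about 11 µL; a reference agonist was the positive control; negative values mostly stem from fluorescent compounds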
Target sequence (P07550 whole entry, looked up): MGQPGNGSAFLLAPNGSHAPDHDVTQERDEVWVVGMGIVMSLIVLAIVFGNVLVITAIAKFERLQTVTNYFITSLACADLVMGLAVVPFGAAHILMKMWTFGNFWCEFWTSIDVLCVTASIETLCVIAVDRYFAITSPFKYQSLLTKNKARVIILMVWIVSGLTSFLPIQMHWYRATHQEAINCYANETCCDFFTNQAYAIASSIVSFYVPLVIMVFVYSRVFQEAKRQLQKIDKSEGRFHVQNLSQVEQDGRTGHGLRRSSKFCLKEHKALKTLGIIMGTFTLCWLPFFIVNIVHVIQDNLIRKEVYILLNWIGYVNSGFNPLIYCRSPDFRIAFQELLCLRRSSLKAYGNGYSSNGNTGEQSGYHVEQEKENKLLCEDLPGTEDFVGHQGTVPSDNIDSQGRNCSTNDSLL
T cruzi inh: blocks replication of Trypanosoma cruzi | inhibition, % (no concentration beside the values) | AID 1885 | T. cruzi beta-gal in NIH3T3, luminescence, 90 h | 300,000 compounds, 1.4% hits;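 active = mean inhibition across valid replicates above about 55%, limit read from the data; inconclusive = mean below that limit but half or more replicates reach it; inactive = mean below it, under half of replicates reach it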;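 note: signal also drops with host cell toxicity which is not excluded here; 0% = plate median of DMSO wells and 100% = zero luminescence signal; higher percent means less beta-gal luminescence so fewer parasites; stock transfer was 50 nL into about 50 µL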
rRNA inh HTS OD600: also measured in rRNA inh HTS; calls as there; OD600 change, %; measured here: OD600 growth;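 optical density of the mix in the first replicate; 0 = DMSO median and -100 = no signal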
rRNA inh HTS RFP: recorded beside rRNA inh HTS, whose call it bears; RFP signal change, %; measured here: RFP humanized mutant strains;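 first replicate; 0 = DMSO median and -100 = no signal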
* = called active by the depositor. This is a subset. The share of hits here may be higher or lower than overall.

O=C(C[C@@H]1C/C=C\CCCC(=O)OC[C@@H]2CCCN2C1=O)N[C@@H](CO)Cc1ccccc1 was read as LANA-H2A inh 1.7, rRNA inh HTS 3, ALR inh -1, Beta cell apopt 4, Bfl-1 A1 inh 0.8, Beta2AR agonist 0, rRNA inh HTS OD600 1 and rRNA inh HTS RFP -2.1.
O=C(COc1ncnc2sccc12)N1CCN(c2ccccc2)CC1 was read as LANA-H2A inh -1.0, Calb FLC -9, rRNA inh HTS 2, ALR inh 31, Beta cell apopt -1, Bfl-1 A1 inh 0.2, Beta2AR agonist 12, T cruzi inh 5, rRNA inh HTS OD600 1 and rRNA inh HTS RFP 1.0.
For COc1ccc(CNC(=O)C(=O)NCC2CCCN2S(=O)(=O)c2ccccc2)cc1 (centres undefined) the results were LANA-H2A inh 1.6, Calb FLC 0, rRNA inh HTS 2, ALR inh -2, Beta cell apopt -2, Bfl-1 A1 inh -0.2, Beta2AR agonist 4, T cruzi inh 15, rRNA inh HTS OD600 0 and rRNA inh HTS RFP 1.1.
`CCc1ccc(N=C2NC(=O)/C(=C/c3ccc(OCC(=O)O)c(OC)c3)S2)cc1` gave Calb FLC 0, rRNA inh HTS 4, Beta2AR agonist 14, T cruzi inh -2, rRNA inh HTS OD600 4 and rRNA inh HTS RFP -3.0.
COc1ccc(C(=O)Nn2cnc3ccccc3c2=O)cc1[N+](=O)[O-] was read as LANA-H2A inh -1.9, Calb FLC -4, rRNA inh HTS 8, Beta cell apopt -1, Bfl-1 A1 inh 1.3, Beta2AR agonist 5, T cruzi inh -1, rRNA inh HTS OD600 9 and rRNA inh HTS RFP 0.1.
COc1ccc(C(=O)O)cc1NC(=S)NC(=O)C(c1ccccc1)c1ccccc1 was read as LANA-H2A inh -4.3, Calb FLC 15, rRNA inh HTS 1, ALR inh 25, Beta cell apopt 2, Bfl-1 A1 inh 0.9, Beta2AR agonist 12, T cruzi inh 0, rRNA inh HTS OD600 -8 and rRNA inh HTS RFP 2.0.
`O=c1c2cnn(-c3ccccc3)c2nc(-c2ccco2)n1-c1ccccc1` gave LANA-H2A inh -4.8, Calb FLC 11, ALR inh 3, Beta cell apopt 11, Bfl-1 A1 inh 0.2, Beta2AR agonist 14 and T cruzi inh 32.
`O=C(CSS(=O)(=O)O)N1CCN(C(=O)c2ccoc2)CC1` gave LANA-H2A inh 1.7, Calb FLC -3, rRNA inh HTS 11, ALR inh 98*, Beta cell apopt -2, Bfl-1 A1 inh -0.1, Beta2AR agonist 0, T cruzi inh 0, rRNA inh HTS OD600 12 and rRNA inh HTS RFP -2.5.
Screening Brc1ccc(-c2cn3nc4c(nc3n2)CCCC4)cc1 returned LANA-H2A inh 18, Calb FLC -2, Beta cell apopt -3, Bfl-1 A1 inh -2.2, Beta2AR agonist -12 and T cruzi inh 7.
CN(CC1COc2ccccc2O1)C(=S)Nc1ccccc1F (centres undefined) was read as LANA-H2A inh -0.5, Calb FLC 4, ALR inh 18, Beta cell apopt -2, Bfl-1 A1 inh 0.6, Beta2AR agonist 1 and T cruzi inh -6.
For CCC(NC(=O)Cc1c(C)c2cc3c(cc2oc1=O)OC(C)(C)CC3)C(=O)O (centres undefined) the results were LANA-H2A inh 3.2, Calb FLC 1, rRNA inh HTS 9, Beta cell apopt 1, Bfl-1 A1 inh 1.2, Beta2AR agonist -2, T cruzi inh -12, rRNA inh HTS OD600 16 and rRNA inh HTS RFP -0.2.
`CN1CCN(C(=O)CSc2nc(-c3ccncc3)ccc2C#N)CC1` gave LANA-H2A inh 0.7, Calb FLC -2, ALR inh 6, Beta cell apopt -1, Bfl-1 A1 inh 0.7 and Beta2AR agonist -10.
`N#Cc1cnc2nc(SCc3ccccc3)nn2c1` gave LANA-H2A inh -1.3, Calb FLC 1, rRNA inh HTS 10, ALR inh -6, Beta cell apopt -1, Bfl-1 A1 inh -0.9, Beta2AR agonist -9, T cruzi inh 11, rRNA inh HTS OD600 10 and rRNA inh HTS RFP 1.4.
Screening COCCn1c(C(C)C)nc2oc3ccccc3c(=O)c2c1=O returned LANA-H2A inh 1.6, Calb FLC 0, Beta cell apopt -4, Bfl-1 A1 inh -0.8, Beta2AR agonist -2 and T cruzi inh 17.
`Cc1ccc2nc(NC(=O)C3CCN(S(=O)(=O)c4cccc5nsnc45)CC3)sc2c1` gave LANA-H2A inh -3.3, Calb FLC -1, ALR inh -11, Beta cell apopt -3, Bfl-1 A1 inh -0.6, Beta2AR agonist 24 and T cruzi inh inconclusive.
For Cc1cc(C)n2nc(C(=O)OCC(=O)N(C)Cc3ccccc3)nc2n1 the results were LANA-H2A inh -2.5, Calb FLC -11, rRNA inh HTS 3, ALR inh 0, Beta cell apopt -11, Bfl-1 A1 inh 0.5, Beta2AR agonist 5, T cruzi inh 22, rRNA inh HTS OD600 6 and rRNA inh HTS RFP -1.8.
For CCOC(=O)c1sc2nc(CSc3ccccc3)nc(NCCN(C)C)c2c1C the results were LANA-H2A inh -5.6, Calb FLC 9, rRNA inh HTS -51, ALR inh -8, Beta cell apopt 12, Bfl-1 A1 inh 0.6, Beta2AR agonist 21, T cruzi inh 4, rRNA inh HTS OD600 -76 and rRNA inh HTS RFP -12.
Screening N#Cc1nc(Cc2ccccc2)oc1NCCc1ccccc1 returned LANA-H2A inh 7.5, Calb FLC 9, ALR inh 1, Beta cell apopt 4, Bfl-1 A1 inh -0.3, Beta2AR agonist -3 and T cruzi inh -3.
COc1ccc(Br)cc1CN1C(=O)NC2(CCCCCC2)C1=O was read as LANA-H2A inh 1.5, Calb FLC 11, rRNA inh HTS 8, ALR inh 2, Beta cell apopt -3, Bfl-1 A1 inh -0.1, Beta2AR agonist -7, T cruzi inh -3, rRNA inh HTS OD600 23 and rRNA inh HTS RFP -1.7.
`CCOc1ccc(NC(=O)[C@@H](NC(=O)OCc2ccccc2)[C@@H](C)CC)cc1` gave LANA-H2A inh -2.4, Calb FLC -17, ALR inh 3, Beta cell apopt -4, Bfl-1 A1 inh 0.2, Beta2AR agonist -2 and T cruzi inh 0.
`COc1ccc(NC(C)=O)cc1NC(=O)CCn1c(=O)sc2ccccc21` gave LANA-H2A inh 4.3, Calb FLC 1, rRNA inh HTS 7, ALR inh -2, Beta cell apopt 8, Bfl-1 A1 inh -0.5, Beta2AR agonist 14, T cruzi inh -10, rRNA inh HTS OD600 9 and rRNA inh HTS RFP -0.4.
`Cc1ccc(NC(=O)CN(C)C(=O)C(C)N2CCN(Cc3ccccc3C)CC2)cc1` (centres undefined) gave LANA-H2A inh 2.8, rRNA inh HTS 6, Beta cell apopt 3, Bfl-1 A1 inh -0.4, Beta2AR agonist -5, rRNA inh HTS OD600 6 and rRNA inh HTS RFP 0.8.
For C=CCc1cc(Cl)ccc1OCCOCCNCCOC the results were LANA-H2A inh 1.5, Calb FLC -4, rRNA inh HTS 12, ALR inh -28, Beta cell apopt -4, Bfl-1 A1 inh 0.2, Beta2AR agonist -34, T cruzi inh 37, rRNA inh HTS OD600 -11 and rRNA inh HTS RFP 12.
Screening Cn1c(=O)c2c(nc(N3CCOCC3)n2CCCNC2=NCCC2)n(C)c1=O returned LANA-H2A inh -0.5, Calb FLC -3, ALR inh -3, Beta cell apopt -5, Bfl-1 A1 inh 0.6, Beta2AR agonist -4 and T cruzi inh -8.
`CC1CCCCN1C(=O)c1cc(-c2ccc(Cl)c(Cl)c2)on1` (centres undefined) gave LANA-H2A inh 2.0, Calb FLC -7, ALR inh -2, Beta cell apopt 33, Bfl-1 A1 inh -1.0, Beta2AR agonist -4 and T cruzi inh 30.
`Cc1c(-c2ccnc3cc(C(=O)O)nn23)cnn1C` gave LANA-H2A inh 4.8, Calb FLC -5, rRNA inh HTS 23, ALR inh 0, Beta cell apopt 4, Bfl-1 A1 inh 1.3, Beta2AR agonist -4, T cruzi inh 11, rRNA inh HTS OD600 15 and rRNA inh HTS RFP -1.9.
Screening CCn1c(=O)c(CCC(=O)N2CCOCC2)c(C)c2c(C)nn(-c3ccccc3)c21 returned LANA-H2A inh 2.8, Calb FLC 12, ALR inh -6, Beta cell apopt 7, Bfl-1 A1 inh 2.4, Beta2AR agonist 2 and T cruzi inh 15.
Nc1c2c(nc3c1CCCC3)CCCC2 (tested in a mixture with another compound) was read as LANA-H2A inh 4.6, Calb FLC 4, rRNA inh HTS 12, ALR inh -52, Beta cell apopt -5, Bfl-1 A1 inh 1.6, Beta2AR agonist -7, T cruzi inh 0, rRNA inh HTS OD600 9 and rRNA inh HTS RFP -0.3.
CCOc1nonc1C(=N)/C(C(C)=O)=C(\C)O was read as LANA-H2A inh 3.3, Calb FLC -17, ALR inh -2, Beta cell apopt -5, Bfl-1 A1 inh 1.1, Beta2AR agonist -4 and T cruzi inh -1.
`COc1ccc(-n2cc(-c3ccccc3)c3c(N4CCOCC4)ncnc32)cc1` gave LANA-H2A inh -3.7, Calb FLC -8, rRNA inh HTS -29*, Beta cell apopt 9, Bfl-1 A1 inh -0.3, Beta2AR agonist 26, T cruzi inh 36, rRNA inh HTS OD600 -8.0* and rRNA inh HTS RFP 0.1*.
Screening Cc1ccc(S(=O)(=O)NCCC(=O)Nc2cccc(Cl)c2)cc1 returned LANA-H2A inh 0.3, Calb FLC -9, ALR inh -5, Beta cell apopt -15, Bfl-1 A1 inh -1.0, Beta2AR agonist -7 and T cruzi inh -4.
Screening CN(c1ccccc1)S(=O)(=O)c1ccc(C(=O)Nc2nnc(-c3ccc(F)cc3)o2)cc1 returned LANA-H2A inh -5.0, Calb FLC 4, ALR inh -5, Beta cell apopt 10, Bfl-1 A1 inh 0.3 and T cruzi inh 48.
For Cc1ccc(C=Nc2ccccc2C(N)=O)cc1 the results were LANA-H2A inh -1.4, Calb FLC -22, ALR inh 0, Beta cell apopt 7, Bfl-1 A1 inh -8.6, Beta2AR agonist -3 and T cruzi inh -45.
`CCOc1ccc(CN2CCSCC2)cc1` gave LANA-H2A inh 3.3, Calb FLC -11, rRNA inh HTS 8, ALR inh 4, Beta cell apopt -6, Bfl-1 A1 inh 1.0, Beta2AR agonist -5, T cruzi inh -17, rRNA inh HTS OD600 8 and rRNA inh HTS RFP -1.1.
`O=C(Cc1c(O)c2ccccc2[nH]c1=O)NC1CCCCCC1` gave LANA-H2A inh 0.7, Calb FLC 0, ALR inh 13, Beta cell apopt -16, Bfl-1 A1 inh 0.1, Beta2AR agonist 5 and T cruzi inh -25.
For S=C(Nc1ccccc1Cl)N(CCCN1CCOCC1)Cc1ccccn1 the results were LANA-H2A inh 1.3, Calb FLC -1, rRNA inh HTS -2, Beta cell apopt 2, Bfl-1 A1 inh 0.1, Beta2AR agonist -3, T cruzi inh -3, rRNA inh HTS OD600 -3 and rRNA inh HTS RFP -1.0.
Screening C/C(=C/c1ccccc1)C(=O)N1CC(C)OC(C)C1 (centres undefined) returned LANA-H2A inh -5.6, Calb FLC 11, rRNA inh HTS 13, ALR inh -3, Beta cell apopt -8, Bfl-1 A1 inh -0.9, Beta2AR agonist -9, T cruzi inh -18, rRNA inh HTS OD600 11 and rRNA inh HTS RFP 1.8.
Screening O=C(Cn1cc(C(=S)N2CCOCC2)c2ccccc21)N1CCOCC1 returned LANA-H2A inh 3.0, Calb FLC -3, ALR inh -6, Beta cell apopt -3, Bfl-1 A1 inh -0.6, Beta2AR agonist 7 and T cruzi inh -2.
